Screening data from PubChem.
AID504770 – E. coli YBA685 growth inhibition, screen for V. cholerae RctB inhibitors | E. coli YBA685 rctB-dependent plasmid, OD600 growth, 3 h; stronger effect = lower value | z-score (test concentration not listed) | actives 0.27% (n = 130,000) | AID 504770;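 active = z-score under -2 on both plates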;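 note: wells of about 30 µL received 100 nL stock; score is relative to mean and SD of the test wells; the first replicate is given; strong numbers were not always called active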
CapD inh – blocks the Bacillus anthracis CapD enzyme. purified CapD enzyme, fluorescence intensity read-out; stronger effect = lower value; some hits fall short of the stated cut. z-score (no concentration beside the values). actives 0.23% (n = 140,000). AID 492967;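 active = z-score under -4 in either of two replicates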;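 note: stock transfer was 100 nL into about 40 µL; score is relative to mean and spread of the plate; one replicate is shown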
Numbers without * were called inactive; / = no result given.

Screens in order: CapD inh, AID504770
CCOC(=O)c1oc2ccc(Br)cc2c1N
 : /, 0.25
CCCN(CC1CC1)C(=O)CSc1nc(N)cc(N)n1
 : /, 0.1
NC(=S)NN1N=C(c2ccccc2)CC1=O
 : /, 0.05
CCc1ccccc1NC(=O)CSc1nc2c(c(=O)[nH]1)CCC2
 : 0.39, 1.9
CN(Cc1ccc(-c2ccc(Cl)cc2)o1)C(=O)CC1Oc2ccccc2NC1=O (stereo not given)
 : /, 0.05
Cc1ccnc2nc(C(=O)Nc3ccc(S(=O)(=O)N4CCCC4)cc3)nn12
 : /, -0.4
FC(F)(F)COc1nc(NCCOC23CC4CC(CC(C4)C2)C3)nc(OCC(F)(F)F)n1
 : 0.03, -0.95
CCCCN(C)C(=O)c1cnn(-c2ccc(C)cc2)c1-n1cccc1
 : -0.92, 0.3
Cc1ccn2cc(CCNC(=O)c3ccc(C(F)(F)F)cc3)nc2c1
 : 29, -0.45
CC(C)C(NC(=O)C1CCCCC1)C(=O)Nc1ccc2c(c1)OCCO2 (stereo not given)
 : -0.13, -0.75
COc1ccc(-c2cc(C(F)(F)F)n3nc(C(=O)Nc4ccc(Cl)cn4)cc3n2)cc1
 : -0.74, /
Cc1cccc(C2N=C(c3cnccn3)NN2)c1 (stereo not given)
 : -3.7, -0.15
O=C(CN1CCCC1)N1c2ccccc2Sc2ccccc21
 : /, -0.1
Oc1ccc(C2(c3ccccc3O)CCCCC2)cc1
 : /, 0.15
CCCc1nc(C(C)(C)O)c(C(=O)OCc2oc(=O)oc2C)n1Cc1ccc(-c2ccccc2-c2nn[nH]n2)cc1
 : /, -1
O=C(Nc1cccc(Cl)c1)N1CCC(c2nc(-c3cccnc3)no2)CC1
 : -0.22, /
O=C(NCCCSc1ccccn1)Nc1ncccn1
 : /, -0.8
O=c1c(Cl)c(NCCc2ccccc2)cnn1-c1nc2ccccc2o1
 : -1.2, 2
CC(C)(C)c1ccc(C(=O)Nc2ccccc2Sc2ncc(-c3ccc(Cl)cc3)cn2)cc1
 : -0.58, /
CCOC(C)n1cccc1-c1ccccc1 (stereo not given)
 : 0.48, 1.2
Cc1ccc(NC(=O)C(NCCCN2CCCC2=O)c2ccccc2)cc1 (stereo not given)
 : /, 0.05
C[N+]12CCCC3CN4C(=O)CCCC4C(CCC1)C32 (stereo not given)
 : -0.59, /
CCN1CCN(C(=O)c2sc3ncnc(N4CCN(c5ccccc5OC)CC4)c3c2C)CC1
 : 0.025, /
O=C(Nc1ccc(N2CCOCC2)cc1)OCc1ccccc1
 : 0.77, 0
NC(=O)N/N=c1/oc2ccccc2cc1-c1nc2ccccc2[nH]1
 : -0.7, -0.6
COc1ccc(Cn2c(=O)c3cccnc3n(CC(=O)Nc3ccccc3OC)c2=O)cc1
 : 0.32, -1.2
CC(C)NC(=O)c1ccc2c(=O)[nH]c3c(C(=O)NC(C)C)sc(=S)n3c2c1
 : 0.24, -0.75
COc1cccc2c1Oc1ncccc1NC2
 : 26, 0.6
COc1ccc2nc3oc(C(=O)Nc4cc(Cl)c(OC)cc4OC)cc3cc2c1
 : 0.64, -0.6
O=C1ON=C(CSc2ccccc2)/C1=C/c1ccccc1
 : 0.45, /
CC(=O)N1CCN(C(=S)c2ccc(-c3cccc(Cl)c3Cl)o2)CC1
 : -1.2, 0.45
O=C(OCc1ccccc1)N1CCN(C(=O)OCC2CCCN(Cc3ccc4ccccc4c3)C2)CC1 (stereo not given)
 : 0.09, /
Cc1nnc(SCC(=O)NCc2ccc(F)cc2)n(N)c1=O
 : /, 0.1
C=CCNc1nc(OC)nc(N2CCC(Cc3ccccc3)CC2)n1
 : 0.3, /
CC(=O)c1cc(C#N)c(SCC(=O)NC23CC4CC(CC(C4)C2)C3)nc1C
 : -0.34, /
O=[N+]([O-])c1ccc(O)c(N=Cc2sc3ccccc3c2O)c1
 : -0.16, /
CCN=C1S/C(=C\c2cn(CC(=O)NCCOC)c3ccccc23)C(=O)N1CC
 : /, 0.75
OC(c1cccc(C(F)(F)F)c1)c1nnc(-c2ccccc2)o1 (stereo not given)
 : /, 0.35
CSc1nc(N)nc(-c2cc(Cl)cc(Cl)c2)n1
 : 0.31, /
COCCOc1ccc(C(F)(F)F)cc1NC(=O)c1ccc2c(=O)n3c(nc2c1)CCC3
 : /, -1.1

Next part, starting with the last two of the part before.
Screens in order: CapD inh, AID504770
CSc1nc(N)nc(-c2cc(Cl)cc(Cl)c2)n1
 : 0.31, /
COCCOc1ccc(C(F)(F)F)cc1NC(=O)c1ccc2c(=O)n3c(nc2c1)CCC3
 : /, -1.1
COC(=O)c1cc(S(=O)(=O)Nc2ccsc2C(=O)OC)oc1C
 : 1.2, 0.45
CCOC(=O)COc1nc(-c2cccs2)cc(C(F)(F)F)n1
 : 71, 1.9
O=C1CC(c2ccco2)CC(O)=C1C=NCCN1CCNCC1 (stereo not given)
 : /, 0.4
O=S(=O)(Cc1ccc(Br)cc1F)c1cccs1
 : 0.57, -0.45
O=C(O)CCC(=O)N1CCc2nc3ccncc3cc2C1
 : -0.02, /
NC(=O)c1sc2nc3c(c(-c4ccccc4Cl)c2c1N)CCCCC3
 : 9.7, /
CCN(CC)S(=O)(=O)c1ccc(C(=O)C(C#N)c2nc3ccccc3c(=O)[nH]2)cc1 (stereo not given)
 : /, 0.65
O=C(NCc1ccccc1F)C1CC(=O)N(Cc2ccco2)C1 (stereo not given)
 : /, 0.05
O=C(c1ccc(C(F)(F)F)cc1)N1CCC(N(C2CC2)S(=O)(=O)c2ccccc2)CC1
 : -0.32, /
O=C(CSc1ccccn1)Nc1cccc(F)c1
 : /, -1.1
O=C(CCCn1c(=S)[nH]c2ccc(Br)cc2c1=O)NCCCN1CCN(c2ccccc2F)CC1
 : -0.08, /
O=C(NCc1cn2ccsc2n1)c1ccccc1C(F)(F)F
 : -0.22, -0.25
Cc1ccc([N+](=O)[O-])c2c1NC(c1cccc([N+](=O)[O-])c1)C1CC=CC21 (stereo not given)
 : -0.09, /
CCCC1CCC(c2ccc(OC(=O)c3cccs3)cc2)CC1 (stereo not given)
 : -0.015, 0
Cc1nnn(C23CC4CC(CC(C(=O)NCc5ccc6c(c5)OCO6)(C4)C2)C3)n1
 : 0.6, -0.65
N#Cc1c(S/C=C(\O)c2cc3ccccc3o2)nc2c(c1C(F)(F)F)CCCC2
 : 0.005, -0.2
CCCCC(C(=O)Nc1cccc(C)c1)N1C(=O)C2C3c4ccccc4C(c4ccccc43)C2C1=O (stereo not given)
 : 0.12, /
CC(C)(C)C1(OCSC#N)C(=O)N=CN=CN1Cc1ccccc1 (stereo not given)
 : /, 0
CC(C)(C)n1nnc(-c2ccccc2)n1
 : -0.32, -0.35
CCn1c(SCC(=O)NC2CCCCC2)nnc1C(CO)NC(=O)c1ccccc1 (stereo not given)
 : 0.33, -0.55
O=C(CSc1nc2cc(Cl)ccc2o1)NC1CC1
 : -1.1, -0.75
N#Cc1nc(-c2ccc(Cl)cc2)oc1N1CCCC1
 : /, -0.55
CN(N)c1ccccc1
 : /, -0.45
c1ccc(C[n+]2ccc(-c3nc4ccccc4s3)cc2)cc1
 : -0.41, 0.3
C(=Nc1ccccc1)c1ccc(N2CCOCC2)cc1
 : /, 1.8
CC(Nc1ncnc2c1oc1ccccc12)c1ccccc1 (stereo not given)
 : /, -1
CSc1sc(Br)c(Cl)c1S(=O)(=O)C(C)C
 : 0.16, /
CCCCn1c(SCC(=O)NCc2ccc(C)cc2)nc2ccsc2c1=O
 : 0.12, -0.3
CC(=O)Nc1ccc2c(c1)C(C)(C)C(C)N2C (stereo not given)
 : -0.48, 1.9
CCc1c(C)[nH]c(C)c1C(=O)OC
 : 0.62, -0.25
CCC(C)(C(=O)Nc1ccc2c(c1)OCCO2)N(C(C)=O)c1ccc(C(N)=O)cc1 (stereo not given)
 : -0.38, -0.35
CN(C)c1ccc(C(=O)NN)cc1
 : -0.06, /
O=C(CN(c1cccc([N+](=O)[O-])c1)S(=O)(=O)c1ccccc1)NCCSCc1ccccc1Cl
 : 0.21, /
O=C(c1cccc(CN2CCN(Cc3ccccc3)CC2)c1)N1CCC(O)CC1
 : 1.4, 2.1
c1ccc(-n2nnnc2-c2nc3ccccc3s2)cc1
 : 0.47, -0.2
O=C(OCC1CCCCN1Cc1ccc(Cl)c([N+](=O)[O-])c1)N1CCN(c2cc(C(F)(F)F)ccn2)CC1 (stereo not given)
 : 15, /
CC(C)CN(CC(C)C)S(=O)(=O)c1ccc(C(=O)Nc2nc3c(s2)CC(C)CC3)cc1 (stereo not given)
 : -0.09, /
COc1ccc(C2C(C(C)=O)=C(C)N=c3s/c(=C/c4cc5c(cc4Br)OCO5)c(=O)n32)cc1 (stereo not given)
 : 0.42, /
N#CC1=C(N)OC2=C(C(=O)CCC2)C12CCCC2
 : /, 0.2
O=C(CSc1ccc(Cl)cc1)Nc1ccc(Br)cc1
 : -0.51, /
CNC(=O)Cn1cccc1C(=O)c1ccccc1C
 : 0.38, 0.2
CC(=O)Nc1ccccc1OCC(O)CS(=O)(=O)Cc1ccc(Cl)cc1 (stereo not given)
 : 0.84, 0
COc1ccc(CNC(=O)NC2CCN(Cc3ccccc3)C2)cc1 (stereo not given)
 : -0.38, /
CSc1cccc(NC(=O)CSc2ncccc2C(=O)OC(C)C)c1
 : 0.83, 0
Cc1nnc(SCCOc2ccccc2Cl)[nH]c1=O
 : /, -0.15
COC(=O)c1cn(NC(=O)CSc2ccncc2)c(=O)c2ccccc12
 : 2.7, 0.7
O=C(Nc1ccc2sc(NC(=O)c3ccc(Cl)cc3)nc2c1)c1ccc(Cl)cc1
 : 0.68, /
OCC#CCSc1ncnn1-c1ccccc1
 : 0.43, -0.75
COC(=O)c1cc(OC)c(OC)cc1NC(=O)Nc1cc(Cl)cc(Cl)c1
 : 2.3, /
Cc1cc(S(=O)(=O)NN(C)c2cccc(Cl)c2C#N)cc(C)c1F
 : 0.3, 1.6

The list goes on.
Screens in order: CapD inh, AID504770
O=C(NN1S(=O)(=O)c2ccccc2S1(=O)=O)c1nc[nH]c1C(=O)Nc1ccccc1
 : -0.78, /
O=C(c1cn(-c2cc(C(F)(F)F)cc(C(F)(F)F)c2)nn1)c1ccco1
 : -0.18, /
CC(OC(=O)C1=COCCO1)C(=O)Nc1ccccc1C#N (stereo not given)
 : /, 0.3
O=C(Nc1nc2ccccc2n1CCOc1ccccc1)c1ccccc1
 : -0.2, /
COC(=O)Cc1c(-c2ccccc2)c2cc(Br)ccc2[nH]c1=O
 : 0.78, -1.1
O=C(CCS(=O)(=O)c1cccc2nonc12)Nc1nccs1
 : -1.1, 0.25
CCc1ccc(/C=N\N2CCN(c3ccccc3)CC2)cc1
 : 0.21, -0.7
CSc1sn(C(=O)NS(=O)(=O)c2ccc(C)cc2)c(=O)c1C#N
 : 0.55, /
COc1ccccc1N1CCN(S(=O)(=O)c2ccc(S(N)(=O)=O)cc2)CC1
 : 0.06, 0.45
CCOC(=O)c1cc(-c2ccc(S(=O)(=O)N3CCCCC3)s2)on1
 : 0.05, 0.5
Nc1c(-c2ccccc2)nnn1-c1ccccc1
 : -0.54, -1.6
COc1ccccc1/C=C1\N=C(c2ccc(OC)c(OC)c2)N(c2cc(C)cc(C)c2)C1=O
 : -0.14, /
O=C(CSc1ccc(Cl)cc1)Nc1ccc(NC(=O)c2ccco2)cc1
 : 0.78, 0.45
Cc1cc(C)c2c(c1)-c1c(ssc1=S)C(C)(C)N2C(=O)CSc1nncn1C
 : -0.95, /
Cc1nnsc1C(=O)NCc1ccc(F)cc1
 : /, -0.25
O=C(O)c1ccccc1C1Nc2ccccc2S(=O)(=O)N1Cc1ccccc1 (stereo not given)
 : /, 0.4
CN(C(=O)COC(=O)c1ccc(Br)cc1)C1CCCCC1
 : 0.4, -0.6
Cc1ccc(Cl)cc1NC(=O)CCN1C(=O)c2ccccc2Sc2ncccc21
 : -0.73, 0.05
CC1=CCC2(C(=O)OC(C)(C)OC2=O)C(c2ccc(F)cc2)C1 (stereo not given)
 : 0.21, /
CCNc1cc(N2CCN(Cc3ccc(OC)c(OC)c3OC)CC2)c2noc3c2c1C(=O)c1ccccc1-3
 : -0.055, 1.4
Cc1ccc(-n2c(O)c(C=Nc3ccc(S(=O)(=O)Nc4nccs4)cc3)c(=O)[nH]c2=O)cc1
 : -0.46, /
CCc1ccc(C(=O)NC(=O)c2ccccc2O)cc1
 : 1.3, -0.95
CC1CCCCN1CCNC(=O)c1ccc2c(c1)N(Cc1ccccc1F)C(=O)c1ccccc1S2=O (stereo not given)
 : -0.15, -0.45
CCS(=O)(=O)c1ccc2oc(SCC(=O)Nc3ccc(OC)cc3OC)nc2c1
 : /, 0.1
Cc1ccc(C(=O)CSC2=NCCCCC2)cc1
 : -0.75, -0.85
Cc1ccc(NC(=S)N(Cc2c[nH]c3ccccc23)C(C)C)cc1C
 : 0.61, 0.7
CC(C)(C)OC(=O)C(C)(C)S(=O)(=O)c1ccc(Cl)cc1
 : -0.34, /
O=S(=O)(Cc1noc(-c2ccno2)n1)Cc1ccco1
 : 0.43, -1.1
Cc1cc(C(=O)NNC(=O)OCCc2ccc(Br)cc2)n[nH]1
 : -0.24, /

Arranged by SMILES length (low to high): part of the list above.
Screens in order: CapD inh, AID504770
Cc1ccc(C(=O)CSC2=NCCCCC2)cc1
 : -0.75, -0.85
CCc1ccc(C(=O)NC(=O)c2ccccc2O)cc1
 : 1.3, -0.95
O=S(=O)(Cc1noc(-c2ccno2)n1)Cc1ccco1
 : 0.43, -1.1
Cc1cc(C(=O)NNC(=O)OCCc2ccc(Br)cc2)n[nH]1
 : -0.24, /
Cc1ccc(NC(=S)N(Cc2c[nH]c3ccccc23)C(C)C)cc1C
 : 0.61, 0.7
CC1CCCCN1CCNC(=O)c1ccc2c(c1)N(Cc1ccccc1F)C(=O)c1ccccc1S2=O (stereo not given)
 : -0.15, -0.45
Cc1ccc(-n2c(O)c(C=Nc3ccc(S(=O)(=O)Nc4nccs4)cc3)c(=O)[nH]c2=O)cc1
 : -0.46, /
